HIV TAR-Tat = HIV-1 TAR-Tat binding disruption. HIV-1 TAR RNA, Tat peptide displacement FRET; active compounds read high. z-score (no concentration beside the values). 0.6% of 100,000 active;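 also: score is relative to mean and SD of negative controls; some compounds called inactive have numbers as strong as hits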
CDC25B CDK2 inh = human CDC25B-CDK2/CyclinA binding inhibition | HTRF CDC25B-CDK2/CyclinA binding, anti-His/anti-Flag; active compounds read high | z-score (test concentration not listed) | 0.72% of 94,000 active;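 also: score is relative to mean and SD of negative controls; strong numbers were not always called active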
* hit, by the source's call; nt = not tested or not shown; & = joins results of further samples.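 The calls were made as follows: active = z-score from 3 up in half or more of its runs; inactive = the rest.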

The line under a structure holds: HIV TAR-Tat, CDC25B CDK2 inh
O=C(Nc1c(F)cc(F)cc1Br)C1CCN(c2nc3ccccc3[nH]2)CC1
    2.3, -2
O=C1NN(c2ccc(Cl)c(Cl)c2)C(=O)/C1=C\c1ccc(-c2ccc3c(c2)C(=O)NC3=O)o1
    nt, -3.4
COc1cccc(C2C(C(=O)OC3CCCCC3)=C(C)NC3=C2C(=O)CC(C)(C)C3)c1OC (configuration not stated)
    0.5, -0.52
Cc1nnsc1C(=O)Oc1ccccc1N1CCCCC1
    nt, -2.9
CCN(C=NC1=NN(c2cccc(C(F)(F)F)c2)CC1)CC
    nt, -12
Cc1ccc2[nH]c(-c3ccccc3)c(CN3CCCC3)c(=O)c2c1
    -0.61, -0.91
CCOC(=O)C1CCN(C(=O)c2cc3c(=O)n4cccc(C)c4nc3n2C)CC1
    nt, -1.4
CCCCc1c(C)[nH]n(-c2nc(C)c(C(=O)NCCC)s2)c1=O
    0.44, -1.1
CCOc1ccc(-c2nn3c(C)nnc3s2)cc1
    0.41, -1.2
COC(=O)c1c(NC(=O)Cn2nc(C)c([N+](=O)[O-])c2C)sc2c1CCC(C)C2 (configuration not stated)
    nt, -0.34
O=C(c1ccc(Br)cc1)C(C(=O)N1CCCCC1)n1ccccc1=O (configuration not stated)
    -0.97, 1.1
COc1ccc(CNC(=O)C2CCN(Cc3cc(OC)c(OC)c(OC)c3)CC2)cc1
    nt, 0.01
CC(C)(CC(=O)N1CCCC1)CC1=NS(=O)(=O)c2ccccc2N1
    nt, -2.9
C=CCNC(=O)C(=O)NCC1OCCCN1S(=O)(=O)c1ccc2c(c1)OCCO2 (configuration not stated)
    nt, 0.41
Cc1nc(-c2csc(S(=O)(=O)Nc3ccc(C)c(Cl)c3)c2)no1
    1.2, nt
CC(C)c1ccc(-c2c(N3CCN(c4ccccc4F)CC3)c(=O)c2=O)cc1
    2.5, nt
CCN(CC)S(=O)(=O)c1nnc(NC(=O)CC(C)C)s1
    2.3, -1.7
Cc1ccc2c(CC(=O)NCc3ccc4c(c3)OCO4)coc2c1C
    1.6, -2.1
Cc1cc(Br)ccc1NC(=O)C1Sc2nnc(C)n2NC1c1ccc(Cl)cc1 (configuration not stated)
    0.51, -0.58
Cc1cc(C)c2c(=O)cc(C(=O)N(Cc3ccco3)C3CCS(=O)(=O)C3)oc2c1 (configuration not stated)
    2.4, -1.5
CC(C)CC(C(=O)NC1CCCC1)N1Cc2ccccc2C1=O (configuration not stated)
    0.03, nt
Cc1cc(C)c2c(c1)-c1cc(C)nn1C(c1ccc(O)cc1)N2 (configuration not stated)
    1.4, -0.38
CCCCC1=NN(C(=O)c2ccc(O)cc2)C(O)(C(F)(F)F)C1 (configuration not stated)
    nt, -1.1
COc1cc(Nc2nc(C)cc(=O)[nH]2)c(OC)cc1Cl
    0.35, -2.7
Cc1nc(N)nc(N/N=C/c2c(F)cccc2Cl)n1
    nt, -0.64
CCCc1[nH]nc2c1C(c1c(F)cccc1Cl)C(C#N)=C(N)O2 (configuration not stated)
    1.9, -0.77
CCCC1c2cccn2CCN1C(=O)Nc1ccc(F)cc1F (configuration not stated)
    -2, nt
Cn1cnc2c(sc3nc(N4CCOCC4)c4c(c32)CC(C)(C)OC4)c1=O
    nt, -0.46
CCc1ccc(-n2nnc(-c3nc(-c4ccc(Cl)cc4)no3)c2N)cc1
    -0.39, nt
CC1(C)Cc2c(sc3nc(NCc4ccccc4)[nH]c(=O)c23)CO1
    -1.9, -0.19
Cc1cn2c(=O)cc(CSc3nc4ccc(NC(=O)C(C)(C)C)cc4s3)nc2s1
    0.71, nt
Cc1nn(CCCC(=O)NCCCN2CCCC2)c(=O)c2cc3occc3n12
    -0.27, -0.1
CCOC(=O)C1=C(C)NC2=C(C(=O)CC(C)(C)C2)C1c1ccc(Br)cc1 (configuration not stated)
    -1.6, nt
CCN(Cc1ccccc1)S(=O)(=O)c1cc(-c2ccc(=O)[nH]n2)ccc1C
    0.95, -1.2
CCC1CCCCN1C(=O)c1noc(C(C)C)c1[N+](=O)[O-] (configuration not stated)
    0.76, -1.5
CC1(C)CC(=O)C2=C(C1)c1c(ccc3ncccc13)NC2c1ccccn1 (configuration not stated)
    nt, 0.89
CCCNc1ncnc2c1cnn2C
    1.2, nt
Cn1nnc2cc(-c3noc(CNC(=O)c4cccs4)n3)ccc21
    0.09, nt
Cc1cc(CNC(=O)NCC2CCCO2)c(C)n1-c1ccc(F)cc1 (configuration not stated)
    -1.5, nt
CC(Oc1ccccc1)C(=O)Nc1c(C(=O)N2CCCC2)oc2ccccc12 (configuration not stated)
    -1.1, nt
Cc1nnc(NC(=O)Oc2ccccc2)s1
    0.28, -0.67
CCc1nc(-c2csc(S(=O)(=O)NCc3ccccc3)c2)no1
    0.74, nt
COc1ccc(OC)c2[nH]c(=O)c(CCNC(=O)c3cc4ccccc4o3)cc12
    nt, -0.53
CCC1Sc2ccc(S(=O)(=O)CCC(=O)Nc3cc(F)ccc3F)cc2NC1=O (configuration not stated)
    1.5, nt
Cc1cc2oc(C(=O)Nc3ccc(S(=O)(=O)Nc4onc(C)c4C)cc3)cc(=O)c2cc1C
    4.4*, -0.43
C=CCN1C(=O)/C(=C\c2cccc(OCc3cccc4ccccc34)c2)SC1=S
    nt, -1.7
O=C1CSc2ccc(S(=O)(=O)CCC(=O)NC3CCCc4ccccc43)cc2N1 (configuration not stated)
    -7.4, nt
CCOC(=O)c1noc2ncnc(N3CCC(N4CCCCC4)CC3)c12
    0.68, nt
CCC1CCCCN1Cc1c(C)[nH]c2ccc(C)cc2c1=O (configuration not stated)
    1.1, -0.45
Nc1ncnc2c1ncn2C1O[C@H](COP(=O)(O)O)[C@@H](O)[C@H]1O (some centres not stated)
    2.6, nt

Further records.
The line under a structure holds: HIV TAR-Tat, CDC25B CDK2 inh
CCc1nc(-c2csc(S(=O)(=O)Nc3ccccc3CC)c2)no1
    0.81, nt
Cn1cc(Br)c(-c2cccc(NS(=O)(=O)c3ccc(Cl)cc3)c2)n1
    nt, 0.61
CCCCC1(O)CC(c2ccc(OC)cc2)NC(c2ccc(OC)cc2)C1C (configuration not stated)
    0.98, 0.58
C#CCSc1ncc(C(=O)O)c(C(OC)OC)n1
    nt, -0.62
O=C(NCc1ccco1)c1c(NC(=O)c2nn(-c3cccc(Cl)c3)ccc2=O)sc2c1CCC2
    1, -0.52
Cc1ccc(-n2nc(C(=O)O)c(C)c(C#N)c2=O)cc1
    -0.2, -2.6
CC(=O)N1c2c(cc(Br)cc2S(=O)(=O)N2CCN(C(=O)c3ccco3)CC2)CC1C (configuration not stated)
    -0.75, -0.55
CC(=O)Nc1nnc(SCc2cc(=O)c3cc(C)ccc3[nH]2)s1
    5, nt
Cc1nc2c(c(NCC(C)C)n1)CCC2
    1.1, -1.6
Cc1cccc(CSc2nc3n(n2)C(c2ccccc2F)C2=C(CCCC2=O)N3)c1 (configuration not stated)
    1, 1.2

Three entries picked at random from the list so far, as already listed:
The line under a structure holds: HIV TAR-Tat, CDC25B CDK2 inh
Cc1cccc(CSc2nc3n(n2)C(c2ccccc2F)C2=C(CCCC2=O)N3)c1 (configuration not stated)
    1, 1.2
Cc1cn2c(=O)cc(CSc3nc4ccc(NC(=O)C(C)(C)C)cc4s3)nc2s1
    0.71, nt
CC(=O)N1c2c(cc(Br)cc2S(=O)(=O)N2CCN(C(=O)c3ccco3)CC2)CC1C (configuration not stated)
    -0.75, -0.55

The list continues:
The line under a structure holds: HIV TAR-Tat, CDC25B CDK2 inh
Nc1nonc1C(=O)NCCNC(=O)c1ccccc1Br
    0.35, -1.2
Cc1ccc(S(=O)(=O)N2CCCC(c3nc(-c4ccc(Cl)cc4)no3)C2)cc1 (configuration not stated)
    2, nt
CCc1ccc(S(=O)(=O)NCCc2cn3ccccc3n2)s1
    nt, -1.5
CNC(=O)C1CCC(Cn2c(=O)c3sccc3n(CC(N)=O)c2=O)CC1 (configuration not stated)
    1.8, nt
CCCN1CCN(CCCNC(=O)c2cc3sccc3n2C)CC1
    0.42, -1.8
CCOc1cc(C(Nc2cc(C)ccn2)c2ccc3cccnc3c2O)ccc1O (configuration not stated)
    1.2, -0.77
O=C(NCCN(Cc1ccco1)C1CCCC1)c1cc2ccc3cccnc3c2[nH]1
    0.59, nt
COc1ccc(NC(=O)C2=CC(c3ccc4c(c3)OCO4)=NS(=O)(=O)N2C)cc1OC
    2.8, -1.3
O=C1Cc2cc(CCN3CCN(c4nsc5ccccc45)CC3)c(Cl)cc2N1
    nt, -1.2
CCC(=O)Nc1ccccc1SCc1cc(=O)n2nc(C)sc2n1
    -0.12, nt

Compound profiles, from the list above. Order of values: HIV TAR-Tat, CDC25B CDK2 inh
CCCN1CCN(CCCNC(=O)c2cc3sccc3n2C)CC1 across the screens: 0.42, -1.8
CNC(=O)C1CCC(Cn2c(=O)c3sccc3n(CC(N)=O)c2=O)CC1 (configuration not stated) across the screens: 1.8, nt
O=C1Cc2cc(CCN3CCN(c4nsc5ccccc45)CC3)c(Cl)cc2N1 across the screens: nt, -1.2
COc1ccc(NC(=O)C2=CC(c3ccc4c(c3)OCO4)=NS(=O)(=O)N2C)cc1OC across the screens: 2.8, -1.3
Nc1nonc1C(=O)NCCNC(=O)c1ccccc1Br across the screens: 0.35, -1.2

Next section
The line under a structure holds: HIV TAR-Tat, CDC25B CDK2 inh
N=C1C(c2nc3ccccc3s2)=C(O)CN1c1ccc(S(N)(=O)=O)cc1
    1.4, -0.4
COc1ccc(Nc2nc(N3CCN(c4ccc(F)cc4)CC3)nc3c2cnn3C)cc1
    0.21, nt
O=c1ccc(N2CCN(S(=O)(=O)c3cnc[nH]3)CC2)nn1-c1ccc(F)cc1
    0.3, nt
Cc1cc2c(cc3c(SCC(=O)Nc4ccc(Br)cc4F)nncn32)o1
    1.6, nt
CCOC(=O)c1c(C)oc2ncnc(N3CCC(N4CCCCC4)CC3)c12
    1.3, nt
COCC(=O)Nc1c(C(=O)Nc2ccccc2OC)oc2ccccc12
    0.95, -0.3
COc1cccc(N2C(=S)N(c3ccccc3)C3CS(=O)(=O)CC32)c1 (configuration not stated)
    nt, -0.63
CC(C)CN(CC(C)C)C(=O)C1CCN(c2ccc(-c3cccs3)nn2)CC1
    0.66, nt
O=C(CCSCc1cnn(-c2ccccc2)c1-n1cccc1)N1CCN(c2ccccc2F)CC1
    -0.2, 0.94
O=C(NCC(c1cccs1)S(=O)(=O)c1cccs1)c1ccc(F)cc1 (configuration not stated)
    0.3, nt
CN1C(C(=O)Nc2ccccn2)=C(O)c2ccccc2S1(=O)=O
    0.9&0.06, -2.5
Cc1cc(NC(=O)CSc2nc3c(cc2C#N)CCC3)no1
    nt, -16
O=C1CCCN1CCCNc1nc2c(S(=O)(=O)c3ccccc3)nnn2c2ccccc12
    0.34, nt
CCCCn1nc(NS(=O)(=O)c2ccccc2)c2cc3ccccc3nc21
    1.6, 0.22
O=C(c1ccccc1)c1cccc(N=Cc2c(O)[nH]c(=O)[nH]c2=O)c1
    nt, -0.81
Cc1cn2c(=O)c(S(=O)(=O)Nc3ccc(F)cc3C)c(C)nc2s1
    0.66, nt
OC(CCN1CCOCC1)(c1ccc(Cl)cc1)C1CCCCC1 (configuration not stated)
    1.1, 0.86
O=C(CCSc1nc(-c2ccco2)cc(C(F)(F)F)n1)NCc1ccncc1
    -1.2, -1.9
Cc1c(C(=O)Nc2nc3ccccc3s2)sc2ncn(CC(=O)N3CCCCC3C)c(=O)c12 (configuration not stated)
    1.6, nt
C=CCc1cccc2cc(C(=O)Nc3ccc(NC(C)=O)cc3)c(=O)oc12
    nt, -2.5
CN(C)c1ccc(NC(=O)Nc2cccs2)cc1
    nt, 2.8
Cc1ccn2c(Nc3ccccc3)c(-c3ccsc3)nc2c1
    nt, -1.8
CCCOC(NC(=O)CC)(C(F)(F)F)C(F)(F)F
    nt, -1.9
Cc1cccc(Nc2nc(-c3cccnc3)cs2)c1
    nt, -0.91
CCc1nnc(NC(=O)CSc2ccc3nnc(-c4ccc(F)cc4)n3n2)s1
    nt, -1
O=C(Cc1ccc(NC(=O)N2CCSc3ncccc32)cc1)NCC1CCCO1 (configuration not stated)
    -0.02, nt
Cc1cc2nc(CSCc3ccc(Cl)cc3)cc(=O)n2o1
    1.5, -0.7
Fc1ccc(-c2cc3ncc4c(n3n2)-c2cc(Cl)ccc2OC4)cc1
    2, -0.66
CCc1ccc(-n2nnc3c(sc4nc(C)cc(COC)c43)c2=O)cc1
    2.5, -2.2
NC(=O)CSc1nnc2scc(-c3ccc(Cl)cc3)n12
    -1.7, 0.55
Cc1ccc2nc(NC(=O)c3cc(=O)c4cc(C)c(C)cc4o3)sc2c1
    0.79, -1.1
CC1CCc2c(sc3ncnc(NCc4ccco4)c23)C1 (configuration not stated)
    nt, -0.42
O=C(Cn1c(=O)c(C(F)(F)F)nc2ccccc21)N1CCN(c2ccccn2)CC1
    nt, -3
Cc1cc(NS(=O)(=O)c2ccc3c(c2)oc(=O)n3C)ccc1Br
    nt, -1.8
COc1ccc2c(c1)NC(c1ccc(C)cc1)=NC(c1cccs1)=N2
    2.1, -2.4
COc1cc(Cl)c(NC(=O)CCS(=O)(=O)c2ccc3c(c2)NC(=O)CO3)c(OC)c1
    -2.4, nt
CCOc1ccc(N2C(=O)CSC2c2ccncc2)cc1 (configuration not stated)
    nt, -2
Cn1c(=O)n(C)c2cc(NC3=C(C(=O)N4CCOCC4)S(=O)(=O)c4ccccc43)ccc21
    2.3, nt
Cc1ccnc(NC(c2ccc3c(c2)OCO3)c2c(C)[nH]c3ccccc23)c1 (configuration not stated)
    nt, 0.19
CN(C)c1ccc2nc3c(=O)n(C)c(=O)n(C)c3nc2c1
    -6.6, 0.3
COc1ccc(OS(=O)(=O)c2sc3ccc(Cl)cc3c2C)cc1
    nt, -0.82
Cc1ccn2c(=O)c(Cc3nnc(SCC(=O)Nc4cc(F)ccc4F)n3C)c(C)nc2c1
    0.97, 0.14

From PubChem BioAssay
